Screens: PubChem BioAssay, National Center for Advancing Translational Sciences (NCATS)
Rango-impB inh – Rango-importin beta binding inhibition; actives 0.031% (n = 340,000); Q14974; Potency, µM (series often up to 92.2 µM), inactives show at the highest dose inhibition of complex formation; AID 540263; Rango CFP/YFP FRET sensor + importin beta, 45 min; active = rising FRET ratio curve, often small or poorly fitted; inconclusive = mostly compound fluorescence or quenching in the first reads; inactive = flat curves in all reads;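 further: potency means the concentration at half of the fitted maximal effect; 0% = DMSO wells and 100% = buffer wells lacking importin beta; nearly all actives have a fitted effect of over 15% in size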
Target sequence (Q14974 whole entry, looked up): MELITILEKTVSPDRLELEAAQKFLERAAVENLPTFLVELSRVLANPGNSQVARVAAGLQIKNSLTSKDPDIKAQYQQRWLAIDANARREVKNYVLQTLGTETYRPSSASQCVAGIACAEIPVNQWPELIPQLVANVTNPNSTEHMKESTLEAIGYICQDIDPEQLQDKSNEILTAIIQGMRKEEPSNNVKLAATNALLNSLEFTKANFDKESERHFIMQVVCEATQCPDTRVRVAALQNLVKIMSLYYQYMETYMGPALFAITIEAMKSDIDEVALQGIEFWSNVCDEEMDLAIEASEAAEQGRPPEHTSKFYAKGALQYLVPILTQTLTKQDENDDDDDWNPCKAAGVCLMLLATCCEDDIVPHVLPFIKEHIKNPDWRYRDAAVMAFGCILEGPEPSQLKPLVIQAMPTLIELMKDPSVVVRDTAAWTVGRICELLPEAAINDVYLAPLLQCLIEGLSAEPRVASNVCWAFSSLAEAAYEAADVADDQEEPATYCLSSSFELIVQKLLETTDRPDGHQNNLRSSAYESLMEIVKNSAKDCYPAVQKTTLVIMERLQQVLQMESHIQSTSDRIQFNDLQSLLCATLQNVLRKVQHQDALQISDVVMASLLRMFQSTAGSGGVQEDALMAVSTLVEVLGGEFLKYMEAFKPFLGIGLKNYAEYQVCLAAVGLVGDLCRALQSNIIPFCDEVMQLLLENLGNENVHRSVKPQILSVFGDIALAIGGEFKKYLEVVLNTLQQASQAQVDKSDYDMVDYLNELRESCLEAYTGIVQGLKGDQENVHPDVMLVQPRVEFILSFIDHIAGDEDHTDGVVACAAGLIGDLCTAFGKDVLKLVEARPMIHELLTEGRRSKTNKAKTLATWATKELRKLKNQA
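FRET biosensor Rango (snurportin 1 IBB between N-terminal EYFP and C-terminal Cerulean), 50 nM in PBS/1 mM DTT/0.02% Tween-20/0.1% BSA, preincubated 5 min RT with compound; 0.125 microM importin beta added, 45 min RT, CFP/YFP FRET ratio read.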
miR-21 FLuc – miR-21 reporter, rising signal; HeLa miR-21 FLuc reporter, luciferase, 48 h; Potency, µM (doses to about 38.3 µM), without a hit: at the highest dose reporter change, positive = more light; 340,000 tested, under 10 active; AID 2288; active = well fitted rising curve with a large enough effect; inconclusive = small, poorly fitted or top-dose-only effect; inactive = no such curve, though single readings can be large or run the other way;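 further: % of control where 0% means no effect; miR-21 action dims this reporter so a rising signal means less miR-21 action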
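Luminescence from a firefly luciferase reporter carrying a miR-21 binding site downstream, stably expressed under a CMV promoter in HeLa cells that make miR-21 endogenously, reports miRNA modulation after 48 h compound exposure up to approximately 40uM final.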
Rango dissoc inh – inhibitors of RanGTP-induced Rango-importin beta complex dissociation. actives 0.071% (n = 340,000). Potency, µM (top dose mostly 46.1 µM), inactives show top-dose activity change, negative = inhibition. O95149+P62826. Biochemical FRET Rango-importin beta, RanGTP-induced dissociation; active means falling FRET ratio curve, often poorly fitted, with flat reads before Ran was added; inconclusive means other falling curves, or compound fluorescence or quenching; inactive means flat or rising ratio curve;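 further: potency means the concentration at half of the fitted maximal effect; % of control where 0% means no effect; nearly all actives have a fitted effect of over 45% in size; -100% = wells without RanGTP and RCC1; the record marks most hits as doubtful in a second field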
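Rango/importin beta premix (0.1/0.25 uM final), PBS + 1 mM DTT + 0.02% Tween-20 + 0.1% BSA; cpd 5 min RT; FRET pre-read; + RanGTP-RCC1 (0.6 uM Ran, 2 mM GTP, 0.2 uM RCC1); 45 min RT; FRET post-read, ex 430, em 486/530 nm.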
GLA inh pH 4.5 – inhibitors of human alpha-galactosidase A at pH 4.5 | activity change, negative = inhibition, % at 105 µM | purified enzyme, 4-MU-alpha-Gal fluorescence, pH 4.5 | P06280 | 230,000 tested, under 10 active; inconclusive = small, poorly fitted or top-dose-only inhibition, or a rising curve; inactive = flat fitted curve, though single readings scatter; no compound was filed as active;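 further: 0% = full activity with enzyme and -100% = basal without enzyme; dose as in the result columns while the protocol names 77 µM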
* marks the source's active call; other numbers are inactive results; ? = inconclusive; · = not tested or not shown; & = joins results of further samples. A portion of the library; the hit share may differ from the screen's.

SMILES	Rango-impB inh	miR-21 FLuc	Rango dissoc inh	GLA inh pH 4.5
CCc1ccc2nc(N=C(N)N)nc(C)c2c1	2.9%	20%	-14%	0
Cc1cc(C)c(-n2c(O)c(C=NCCN3CCOCC3)c(=O)[nH]c2=O)c(C)c1	-0.6%	1%	-10%	6
CCCCCCCCCS(=O)(=O)Nc1cc(C)ccn1	-4.0%	0%	-4%	-10
CCCn1c2ccc(F)cc2c2nnc(SCCN3CCOCC3)nc21	1.0%	-9%	17%	·
Clc1cncc(Cl)c1NNc1c2ccccc2nc2ccccc12	?	-7%	?	?
CCOC(=O)c1ccc(NC(=S)N(CCN2CCCCCC2)Cc2cccs2)cc1	0.2%	-9%	-2%	-1
Cc1ccccc1NC(=O)c1c(C)nc(SCC(=O)OCc2ccccc2)c(C#N)c1-c1ccc(F)cc1	?	4%	15%	2
COc1ccc(NCC(O)Cn2cnc3c2c(=O)n(C)c(=O)n3C)cc1 (stereo not given)	1.9%	0%	0%	-5
O=C(Nc1nc(-c2ccccc2)cs1)c1cccc([N+](=O)[O-])c1C(=O)O	8.0%	-9%	15%	-8
CCCCN(C)C(=O)c1cn(-c2cccc(OC)c2)c(=O)c2ccccc12	-0.5%	-3%	25%	·
CCn1ccnc1CN(C)Cc1cn(-c2ccc(C)cc2)nc1-c1cccc(C)c1	2.0%	1%	17%	-11
O=C(Nc1ccc(-c2csnn2)cc1)C(Cl)(Cl)Cl	0.1%	-12%	-11%	-3
C=CCNC(=O)C1CC1(c1ccc(C)cc1)c1ccc(C)cc1 (stereo not given)	-1.3%	20%	-8%	·
CCCCN(CC)CCNC(=O)Cn1cnc2sc(C)c(S(=O)(=O)N3CCC(C)CC3)c2c1=O	0.1%	-2%&8%	8%	·
COc1ccc(CNC(=O)COc2ccc(F)cc2)cc1	-3.9%	-10%	22%	-4
CN1C2CCC1CC(NC(=O)c1ccc([N+](=O)[O-])cc1)C2 (stereo not given)	?	-9%	-3%	·
COc1cc(-c2c(C#N)c(N)nc3c2CCCC3)ccc1O	?	-3%	-28%	-5
Cc1ccc(S(=O)(=O)c2cc3ccccc3nc2N)cc1	-3.1%	-4%	-3%	-4
CC(=O)c1ccc(NC(=S)NNC(=O)c2ccccc2[N+](=O)[O-])cc1	2.6%	-15%	-3%	-1
O=C(CN1C(=O)c2ccccc2S1(=O)=O)Nc1ncc([N+](=O)[O-])s1	-0.9%	·	9%	·
Cc1cc(O)c(/C=N/Nc2ccccc2Cl)c(=O)o1	?	-32%	-17%	-4
O=C(Cn1cc(C(F)(F)F)cc(Cl)c1=O)Nc1ccc(N2CCOCC2)cc1	-2.7%	5%	1%	-5
CN(Cc1c(C(=O)N/N=C/c2cc(F)ccc2F)nnn1-c1nonc1N)C1CCCCC1	1.5%	0%	5%	·
COc1ccc(C(=O)NC(=S)Nc2ccc(CN3CCOCC3)cc2)cc1Br	-2.2%	19%	-9%	·
N#C/C(=C(/O)CCl)c1nc(-c2ccccc2)cs1	?	-31%	-11%	-2
CC(C)CNS(=O)(=O)c1cc(C(=O)OC2CCOC2=O)c(Cl)cc1Cl (stereo not given)	0.1%	7%	2%	·
O=C(N/N=C/C(Cl)=C/c1ccccc1)c1ccccc1F	-1.8%	-64%	6%	·
Cc1ccc(S(=O)(=O)N2CCCCC2)cc1NC(=O)COC(=O)C1(C)CC1(Cl)Cl (stereo not given)	-0.1%	·	-9%	·
Cc1noc(C)c1COC(=O)c1cc(=O)[nH]c2ccccc12	-5.4%	-8%	-12%	-2
CN1CCc2c(sc3ncn4nc(-c5ccccc5O)nc4c23)C1	·	3%	·	-1
CN(CCc1cn[nH]c1)C(=O)CC1C(=O)NCCN1Cc1cccc(Oc2ccccc2)c1 (stereo not given)	-3.1%	0%	-12%	8
CCn1cc(Cl)c(C(=O)N2N=C(c3ccc4ccccc4c3)CC2c2ccccc2O)n1 (stereo not given)	-1.1%	-6%	20%	6
Cc1ccc(NC(=S)N2CCC(N(C)CC3CCCO3)CC2)cc1 (stereo not given)	0.8%	-5%	-13%	-7
C=CCn1c(O)c(CN2CCCCC2)c(C)c(C#N)c1=O	?	2%	?	-5
CC1(NC(=O)CSc2nnc(-c3ccco3)n2Cc2ccccc2)CCS(=O)(=O)C1 (stereo not given)	2.1%	·	1%	·
CCOC(=O)c1ccccc1NC(=O)COC(=O)C1CCCC1	2.5%	·	1%	·
S=C(Nc1ccccc1)Nc1nc2ccccc2n1CCOc1ccc(Br)cc1	-0.5%	-9%	4%	-2
Cc1cc(CNC(=O)c2cc(-c3ccccc3)nc3ccccc23)nn1C	-2.7%	8%	-8%	-3
CCN1CCN(CCNC(=O)c2ccc3c(c2)N(Cc2ccc(F)cc2)C(=O)c2ccccc2S3=O)CC1 (stereo not given)	0.0%	-8%	19%	·
Cc1ccc(S(=O)(=O)N2CCN(C(=O)[C@H](Cc3ccccc3)NC(=O)c3ccco3)CC2)cc1	9.5%	·	-27%	·
O=C(Nc1cccc(C(=O)O)c1)/C(=C\c1ccccc1)NC(=O)c1cccc2ccccc12	-0.7%	0%	-7%	-8
CCC(=O)CCC(=O)c1ccc2ccccc2c1	5.0%	-60%	8%	1
CNC(=O)CSc1nc2sccc2c(=O)n1-c1ccccc1	2.4%	-14%	-4%	·
COc1cccc(C2/C(=C(/O)c3cnn(-c4ccccc4)c3C)C(=O)C(=O)N2CCN(C)C)c1OC (stereo not given)	1.4%	14%	4%	·
Cc1ccccc1CN(CC(=O)Nc1cccc([N+](=O)[O-])c1)S(=O)(=O)c1ccc(Cl)cc1	0.2%	?	15%	3
CN(C)C(=O)c1ccc(Nc2nc(-c3cccs3)nc3ccccc23)cc1	0.7%	16%	-10%	·
CCN(CC)CCOC(=O)c1ccc(NC(=O)CNC(=O)C2CCCCC2)cc1	3.3%	-6%	?	-8
O=C1NC(=O)C(=Cc2ccc(Cl)cc2Cl)S1	3.9%	·	-13%	·
CCCC(=O)NC(c1ccccc1Cl)c1c(O)ccc2ccccc12 (stereo not given)	1.3%	0%	2%	2
COc1ccccc1NC(=O)COC(=O)c1c[nH]c2ccccc12	-3.1%	·	-8%	·
N#Cc1c(SCC(=O)O)nc(-c2ccccc2)c2c1CCCC2	-0.4%	-3%	-18%	-3
CSc1ccccc1C(=O)NCCOc1ccccc1C	-1.8%	-9%	-7%	2
O=C(OCc1ccc([N+](=O)[O-])cc1)C1CC(=O)N(CCc2ccccc2)C1 (stereo not given)	8.6%	·	34%	·
CC(Oc1cccc(Cl)c1)C(=O)Nc1ccc(S(=O)(=O)N(C)C2CCN(C)CC2)cc1 (stereo not given)	-0.8%	·	16%	·
Cc1csc(NC(=O)c2cnccn2)n1	4.3%	-33%	5%	-5
CC(C)c1nc2sc3c(SCCN(C)C)ncnc3c2c2c1CCC2	0.0%	·	0%	·
CCOc1ccc(NC(=O)NCc2ccccn2)cc1	-0.3%	-14%	8%	·
NC(=O)C1CCN(CCC(=O)Nc2ccc3c(c2)CCC3)CC1	-0.2%	0%	1%	-3
COc1ccc(CC(=O)NC(C)c2nnc(SCC(=O)c3ccc(Br)cc3)n2C)cc1 (stereo not given)	0.3%	17%	1%	-2
CCCn1c(=O)c2sccc2n2c(CCCC(=O)NCc3cccnc3)nnc12	3.5%	4%	-9%	·

3 entries from above in a different format.
Rango-impB inh	miR-21 FLuc	Rango dissoc inh	GLA inh pH 4.5	canonical_smiles
2.0%	1%	17%	-11	CCn1ccnc1CN(C)Cc1cn(-c2ccc(C)cc2)nc1-c1cccc(C)c1
0.0%	·	0%	·	CC(C)c1nc2sc3c(SCCN(C)C)ncnc3c2c2c1CCC2
?	4%	15%	2	Cc1ccccc1NC(=O)c1c(C)nc(SCC(=O)OCc2ccccc2)c(C#N)c1-c1ccc(F)cc1

Continuation:
SMILES	Rango-impB inh	miR-21 FLuc	Rango dissoc inh	GLA inh pH 4.5
Cc1ccc(NC(=S)N2CCN(C3CCCCC3)CC2)cc1	-0.1%	-1%	4%	-2
O=C(O)c1ccc(COc2ccccc2/C=C2\NC(=O)N(Cc3ccccc3F)C2=O)cc1	-4.5%	-27%	-9%	-2
O=C(COC(=O)CNC(=O)C12CC3CC(CC(C3)C1)C2)NC1CCS(=O)(=O)C1 (stereo not given)	0.1%	-4%	27%	12
O=C(NCc1ccc(F)cc1)C(=O)NCC1OCCN1C(=O)c1ccc(Cl)cc1 (stereo not given)	?	-10%	-13%	4
Cc1noc(NS(=O)(=O)c2ccc(NC(=O)Nc3ccc(Cl)c(Cl)c3)cc2)c1C	-4.0%	-5%	32%	-7
COc1cccc(-c2noc(N)c2C#N)c1	-4.4%	-4%	-11%	1
CCCCCC1(C(=O)OCC)CC(CSC(=N)N)OC1=O (stereo not given)	-1.0%	4%	6%	7
COc1ccc(C(=O)N/C(=C/c2cccs2)C(=O)NC(C)(C)C)cc1OC	-0.1%	-1%	-5%	-10
CCOc1ccc(C(O)c2nccn2C)cc1 (stereo not given)	-3.4%	0%	7%	-21
COc1ccccc1NC(=O)c1c(N=Cc2cccc([N+](=O)[O-])c2)cnn1C	0.8%	-4%	1%	-1
Cn1nc(C(=O)NNC(=O)c2ccccc2F)c2ccccc2c1=O	4.4%	·	-3%	·
COc1cc(O)c(C(C)=O)c(CC(=O)O)c1	?	3%	12%	3
O=C(c1cccc(S(=O)(=O)N2CCc3ccccc32)c1)N1CCN(CCO)CC1	-1.2%	·	1%	·
Cc1cccc(CSc2nc3ccccc3c(=O)n2C)c1	1.7%	·	-19%	·
Cc1nnc(NC(=O)c2cccc(NC(=O)C(C)C)c2)s1	-0.7%	-16%	-24%	-10
CN(C)c1cccc(NC(=O)c2ccco2)c1	-0.3%	3%	-6%	9
CCOC(=O)C1CCN(c2c(NCCCN(C)C3CCCCC3)c(=O)c2=O)CC1	0.2%	-10%	-9%	-5
CCCCn1c(N)c(N(CCC(C)C)C(=O)CCN2C(=O)C3CC=CCC3C2=O)c(=O)[nH]c1=O (stereo not given)	-4.5%	·	0%	·
COC(=O)Cc1[nH]c(Cl)nc1C(N)=O	2.2%	2%	-15%	4
Nc1ccc2nn(-c3cc([N+](=O)[O-])ccc3O)nc2c1	0.5%	-6%	-12%	·
O=C(O)C1C2CCC(CC2)C1C(=O)O (stereo not given)	-0.3%	·	1%	·
O=C(Nc1nnc(SCc2cccc3ccccc23)s1)C1COc2ccccc2O1 (stereo not given)	-7.2%	-7%	-5%	-3
CC(=O)c1cccc(NC(=O)N2CC(C)OC(C)C2)c1 (stereo not given)	-3.1%	-5%	0%	·
O=C(CSc1nnc(-c2cccnc2)o1)Nc1ccccn1	-0.9%	-27%	5%	-1

Some of the entries above, set out differently:
SMILES: CCCCN(CC)CCNC(=O)Cn1cnc2sc(C)c(S(=O)(=O)N3CCC(C)CC3)c2c1=O
  Rango-impB inh = 0.1%	miR-21 FLuc = -2%&8%	Rango dissoc inh = 8%	GLA inh pH 4.5 = ·

SMILES: COc1ccc(CNC(=O)COc2ccc(F)cc2)cc1
  Rango-impB inh = -3.9%	miR-21 FLuc = -10%	Rango dissoc inh = 22%	GLA inh pH 4.5 = -4

(continued)
SMILES	Rango-impB inh	miR-21 FLuc	Rango dissoc inh	GLA inh pH 4.5
Cc1c(C(=O)Nc2ccc(S(=O)(=O)Nc3ncccn3)cc2)oc2ccc(Cl)cc12	-1.9%	-6%	0%	·
Cc1oc(/C=N/NS(=O)(=O)c2ccccc2)cc1Br	0.3%	-58%	-1%	1
NC(=O)NOCc1c(F)cccc1Cl	-5.7%	-10%	-1%	7
CN(C)CCCN(Cc1ccc2c(c1)OCO2)C(=O)NC1CCCCC1	1.7%	-8%	-15%	0
Cc1ccc2nc(/C(C#N)=C/c3ccc(-c4ccccc4C(=O)O)o3)[nH]c2c1	?	6%	?	·
CC1CCN(CCC(=O)Nc2ccc(Cl)cc2)CC1	1.8%	-9%	11%	-6
CSc1nnc(Cn2c(=O)sc3ccccc32)n1CCc1ccccc1	?	-14%	8%	-9
Cc1cccc(CCNC(=O)CCc2nc(-c3ccccc3F)no2)c1	-0.5%	-5%	28%	3
CCn1c(=O)cc(SCC(=O)Nc2ccc3c(c2)OCO3)c2ccccc21	4.6%	-23%	12%	11
Cc1cccc(-n2cc(CN3CCCN(C=O)CC3)c(-c3cccc(F)c3)n2)c1	-1.1%	-13%	-10%	-9
